From PubChem
DUX4 inh = inhibitors of DUX4-driven ZSCAN4 reporter expression, primary screen, 293T cells, Gaussia and Italica luciferase | 293T-iDUX4 ZSCAN4-Gaussia luciferase reporter, 24 h; stronger effect = lower value | activity change, negative = inhibition, % (no concentration beside the values) | hit rate 0.8% among 37,000;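 active = -10% or lower and over 25 points stronger than a control reporter; inconclusive = -10% or lower with a smaller gap; inactive = above -10%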;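 note: 0% = median of neutral control wells and -100% = median of positive control wells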
DUX4 inh difference = further read-out of DUX4 inh, marked with its call; Gaussia minus Italica difference, %; measured here: selective DUX4 reporter inhibition;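 worked out from the two reporters; negative = selective loss of the DUX4 reporter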
DUX4 inh control = further read-out of DUX4 inh, marked with its call; activity change, negative = inhibition, %; measured here: Italica tet-on control reporter;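 0 = neutral control and -100 = positive control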
* marks the source's active call; other numbers are inactive results; u = inconclusive; x = no result given; & = joins results of further samples. The list is partial. The share of hits here may be higher or lower than overall.

Values run as follows: DUX4 inh	DUX4 inh difference	DUX4 inh control
- COC(=O)[C@@H]1[C@@H](CO)[C@@H]2Cn3c(cccc3=O)[C@H]1N2Cc1nccs1
 : 12	13	-1.6
- COc1ccc(C#Cc2ccc([C@H]3[C@H]4CN(C(=O)Cc5cccnc5)CCCCN4[C@H]3CO)cc2)cc1
 : u	x	x
- COC(=O)[C@H]1[C@H](CO)[C@H]2Cn3c(ccc(-c4ccccc4F)c3=O)[C@@H]1N2Cc1cccnc1
 : 14	10	4.1
- CC(C)NC(=O)N1[C@@H]2Cn3c(ccc(-c4cccc(C(=O)N(C)C)c4)c3=O)[C@H]1[C@@H](C(=O)O)[C@@H]2CO
 : u	x	x
- COC(=O)[C@@H]1[C@@H](CO)[C@@H]2Cn3c(ccc(C4=CCCCC4)c3=O)[C@H]1N2CC1CCCCC1
 : u	x	x
- OC[C@@H]1Nc2ccc(C#Cc3cccnc3)cc2[C@H]2NCC[C@@H]12
 : u	x	x
- COC(=O)C[C@@H]1CC[C@@H]2NC[C@@H](O)COC[C@H]2O1
 : 11	8	3.1
- C/C=C/c1ccc(C2[C@@H]3CN(C(=O)CN(C)C)C[C@H]2N3)cc1 (stereo partly drawn)
 : 5&10	-8&-14	13&25
- COC(=O)[C@@H]1[C@@H](CO)[C@@H]2Cn3c(ccc(C4=CCCCC4)c3=O)[C@H]1N2CCc1ccccc1
 : u	x	x
- O=C(Cc1ccccc1)N1CC2(C1)[C@@H](c1ccccc1)[C@H](CO)N2Cc1cccc(F)c1
 : -10	2	-11
- O=C(Cc1ccncc1)N1CCCCN2[C@@H](CO)[C@H](c3ccc(-c4ccncc4)cc3)[C@@H]2C1
 : 4	10	-5.2
- COc1cccc(-c2ccc([C@H]3[C@H](CO)N4CCCCN(C(=O)Cc5ccncc5)C[C@@H]34)cc2)c1
 : 8	-2	9.9
- COc1cccc(-c2ccc([C@@H]3[C@@H](CO)N4CCCCN(C(=O)Cc5ccncc5)C[C@@H]34)cc2)c1
 : -8	-2	-5.3
- CC=Cc1ccc2n(c1=O)C[C@@H]1[C@@H](CO)[C@H](C(=O)OC)[C@H]2N1CC1CCOCC1 (mixture of isomers)
 : 1	-2	3.3
- O=C(O)[C@@H]1[C@@H](CO)[C@@H]2Cn3c(ccc(-c4cccnc4)c3=O)[C@H]1N2C(=O)Nc1cc(F)ccc1F
 : 9	-3	11
- C[C@@H]1CN([C@@H](C)CO)C(=O)CCCn2nncc2CO[C@H]1CN(C)C(=O)Oc1ccc2ccccc2c1
 : 0	-6	5.7
- O=C(Cc1ccccn1)N1CCCCN2[C@H](CO)[C@@H](c3ccc(-c4ccccc4F)cc3)[C@H]2C1
 : 7	5	2.2

Full records, quoted from the list. Order of values: DUX4 inh	DUX4 inh difference	DUX4 inh control
O=C(Cc1ccccn1)N1CCCCN2[C@H](CO)[C@@H](c3ccc(-c4ccccc4F)cc3)[C@H]2C1 in the list: 7	5	2.2
O=C(Cc1ccncc1)N1CCCCN2[C@@H](CO)[C@H](c3ccc(-c4ccncc4)cc3)[C@@H]2C1 in the list: 4	10	-5.2
C[C@@H]1CN([C@@H](C)CO)C(=O)CCCn2nncc2CO[C@H]1CN(C)C(=O)Oc1ccc2ccccc2c1 in the list: 0	-6	5.7
COc1cccc(-c2ccc([C@@H]3[C@@H](CO)N4CCCCN(C(=O)Cc5ccncc5)C[C@@H]34)cc2)c1 in the list: -8	-2	-5.3
COC(=O)C[C@@H]1CC[C@@H]2NC[C@@H](O)COC[C@H]2O1 in the list: 11	8	3.1

Three entries already listed, ordered by count of non-hydrogen atoms, largest number first.
Values run as follows: DUX4 inh	DUX4 inh difference	DUX4 inh control
- COc1cccc(-c2ccc([C@H]3[C@H](CO)N4CCCCN(C(=O)Cc5ccncc5)C[C@@H]34)cc2)c1
 : 8	-2	9.9
- OC[C@@H]1Nc2ccc(C#Cc3cccnc3)cc2[C@H]2NCC[C@@H]12
 : u	x	x
- C/C=C/c1ccc(C2[C@@H]3CN(C(=O)CN(C)C)C[C@H]2N3)cc1 (stereo partly drawn)
 : 5&10	-8&-14	13&25
